gsp antag: antagonizes gsp, the McCune-Albright syndrome mutation. gsp-mutant cells, cAMP HTRF, 30 min; control for the full effect not named in the record. 340,000 tested, 0.4% active. Potency, µM (titrated, usually from 76.9 µM), without a hit: at the top dose activity change, negative = inhibition, most hits filed as inhibitors; active = falling curve of any shape with a large fitted effect; inconclusive = falling curve, mostly with a smaller effect; inactive = flat or rising curve; cell line not stated here;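 note: intracellular cAMP measured with PDE inhibitor Ro 20-1724 present during compound exposure; potency is the fitted concentration of half-maximal effect; % is set by controls: 0 for no effect and ±100 for the full control effect; nearly all actives have a fitted effect of over 65% in size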
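Cells in G418 medium, seeded 16-24 h, 37C; buffer exchange to DPBS + 1 mM CaCl2, 0.5 mM MgCl2, 0.05% BSA; cpds in DMSO + […] (300 uM stock), 30 min 37C; HTRF cAMP detection.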
Sfp inh: Sfp phosphopantetheinyl transferase inhibition; Q9F4F7; 310,000 tested, 3.5% active; AID 1490; Potency, µM, for inactives: max response, negative = inhibition, hits mostly inhibitors; Biochemical Sfp PPTase activity, qHTS; active = well fitted inhibition curve with a large enough effect; inconclusive = small, poorly fitted or top-dose-only effect, or another doubt; inactive = no such curve, though single readings can be large or run the other way;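 note: the enzyme is Sfp with the accession as filed and its product quenches rhodamine fluorescence; potency is the fitted concentration of half-maximal effect; 0% = enzyme reaction without inhibitor and -100% = no enzyme wells; top concentration of the series not given in the record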
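Buffer: 50 mM Hepes-Na pH 7.6, 10 mM MgCl2, 0.01% Nonidet P-40, 0.01% BSA. Enzyme 15 nM, pre-exposed to compound 15 min; substrates then added and fluorescence change tracked over 30 min.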
Menin-MLL FL inh: inhibitors of human menin-MLL interaction, wild-type MLL peptide. Fluorescence polarization, fluorescein-MLL peptide displacement from menin. AID 1766. FP activity change, % at 61.4 µM. 290,000 tested, under 10 active; inconclusive = falling polarisation curve, or a change in total fluorescence; inactive = total fluorescence flat and polarisation flat or rising; no compound was filed as active; the % refers to the polarisation; negative = inhibition;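 note: % of control where 0% means no effect; inhibitors lower the polarisation; unlabelled MLL peptide was the positive control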
ClpP mod: qHTS Assay for Activators of ClpP; ATP-dependent Clp protease proteolytic subunit (Bacillus subtilis (strain 168)), P80244; purified B. subtilis ClpP, FRET peptide cleavage, 20 min; Potency, µM (highest dose often 57.5 µM), inactives show top-dose activity change, negative = active; 340,000 tested, 1.9% active; AID 651965, 2013; active = well fitted falling curve with a large enough effect; inconclusive = small, poorly fitted or top-dose-only effect; inactive = no such curve, though single readings can be large or run the other way; note: potency is the fitted concentration of half-maximal effect; the source files actives as falling curves though it sought activators and does not explain the sign; nearly all actives have a fitted effect of over 65% in size; many hits overshoot -100%
Target sequence (P80244 whole entry, looked up): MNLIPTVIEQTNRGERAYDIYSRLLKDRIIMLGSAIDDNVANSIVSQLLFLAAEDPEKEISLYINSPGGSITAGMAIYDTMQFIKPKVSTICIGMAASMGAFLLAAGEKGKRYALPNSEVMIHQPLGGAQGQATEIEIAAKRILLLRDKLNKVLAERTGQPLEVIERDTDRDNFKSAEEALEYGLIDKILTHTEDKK
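ClpP 10 microg/mL final, pH 8 Tris/KCl buffer with BSA, glycerol, Tween-20; compound pinned in; FRET-FV substrate; RT 20 min; Ex320/Em430; ΔFRET vs ADEP 5.8 microM, DMSO, no enzyme.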
gsp ag: gsp mutant agonism. gsp mutant cells, cAMP HTRF, 30 min; control for the full effect not named in the record. 340,000 tested, 0.13% active. Potency, µM (titrated, usually from 76.9 µM), for inactives: top-dose activation (cAMP increase), most hits filed as activators; active = well fitted activation curve with a large enough effect; inconclusive = small, poorly fitted or top-dose-only effect, or another doubt; inactive = no such curve, though single readings can be large or run the other way; cell line not stated here;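 note: phosphodiesterase inhibitor Ro 20-1724 added with compounds to block cAMP breakdown; potency is the fitted concentration of half-maximal effect; nearly all actives have a fitted effect of over 60% in size; about a fifth of the inactives were tested at one dose only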
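Cells in DMEM/10% FBS with G418 were pretreated with compounds in DMSO plus […] (300 uM stock) for 30 min at 37C. cAMP was measured by HTRF (cAMP-d2 plus anti-cAMP antibody-K) after 30 min at room temperature.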
TRPV1 PAM: potentiators of human vanilloid receptor 1 (TRPV1); 320,000 tested, 0.02% active; TRPV1-expressing cells, Fluo-8 calcium influx, capsaicin EC20 potentiation; host cell line not named in the record; control for the full effect not named in the record; potentiation, % at 8.33 µM; active means potentiation above 80%; inconclusive means 30% to 80%; inactive means below 30%; note: 0% is about no effect
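Fluo-8 calcium influx in TRPV1-expressing cells, kinetic read (ex 480/em 520 nm). Compound added and read 3 min for agonist activity, followed by capsaicin at EC20 final and 2 min further read for enhancement.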
D2 PAM: positive allosteric modulators of human D2 dopamine receptor. P14416. DiscoveRx D2 beta-arrestin cells, luminescence, 90 min; 100% = 57 uM dopamine signal. potentiation, % (test concentration not listed). 360,000 tested, 0.23% active. AID 624464; active = potentiation of 50% or more; inconclusive = 30% to 50%; inactive = 30% or less;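 note: compound concentration not given in the record; tested on top of an EC20 dose of dopamine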
Target sequence (P14416 whole entry, looked up): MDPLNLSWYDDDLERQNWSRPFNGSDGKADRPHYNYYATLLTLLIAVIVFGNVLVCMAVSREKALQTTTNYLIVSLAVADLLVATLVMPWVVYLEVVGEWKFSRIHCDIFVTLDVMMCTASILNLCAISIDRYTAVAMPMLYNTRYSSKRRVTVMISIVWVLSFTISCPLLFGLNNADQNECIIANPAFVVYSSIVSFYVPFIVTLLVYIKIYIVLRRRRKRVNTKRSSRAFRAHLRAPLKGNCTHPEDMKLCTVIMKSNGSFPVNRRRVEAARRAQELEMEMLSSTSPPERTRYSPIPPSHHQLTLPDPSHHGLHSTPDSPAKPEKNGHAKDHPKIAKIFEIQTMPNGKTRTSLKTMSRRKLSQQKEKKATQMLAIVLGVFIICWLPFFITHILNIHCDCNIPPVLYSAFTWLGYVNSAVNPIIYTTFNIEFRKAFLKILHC
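PathHunter beta-arrestin assay in DiscoveRx D2 cells. Compounds were added with an EC20 of dopamine (50 nM final) for 90 min at 37 deg C. Luminescence was read 1 h after detection reagent, with 57 uM dopamine as the EC100 control.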
* marks the source's active call; other numbers are inactive results; ? = inconclusive; / = not tested or not shown; [ ] = dose if it differs, or a comment.

SMILES	gsp antag	Sfp inh	Menin-MLL FL inh	ClpP mod	gsp ag	TRPV1 PAM	D2 PAM
Cc1cc(OC(=O)c2c(Cl)cccc2Cl)nc(C)n1	-5%	2%	0.4	-2.1%	4%	5	-4
COc1ccc(OC)c(-c2csc(N3CCC(c4ccccc4)CC3)n2)c1	-4%	-22%	5.8	-3.2%	2%[15.4 µM]	7	-14
CC(Oc1ccc(F)cc1)c1ccnc2nc(/N=C/N(C)C)nn12 (stereo unspecified)	4%	10%	0.6	/	1%	2	6
CNC(=S)N(CCc1ccccc1)Cc1cc2cc(OC)c(OC)cc2[nH]c1=O	-1%	0%	-0.2	35µM*	-17%	-9	-9
COc1cccc(-c2csc(N3CCN(Cc4ccccc4)CC3)n2)c1	-11%	?	-1.7	-5.0%	?	-8	-14
COc1cc(NC(=O)c2cccs2)ccc1NC(=O)Cc1ccccc1	-18%	-3%	-3.1	-1.8%	?	-11	-8
CC(C)Cn1c(=O)c2ccccc2n2c(CCC(=O)O)nnc12	5%	3%	5.2	-7.9%	?	-9	-3
COc1ccc(CCNC(=O)C(=O)NN=C2CCCCCCC2)cc1OC	-1%	10%	0.9	-1.5%	4%	4	-6
O=C(NCC(=O)N(CC1CCCO1)C(C(=O)NC1CCCCC1)c1cccnc1)c1cccs1 (stereo unspecified)	2%	18%	0.0	-1.3%	-2%	7	-7
CCOc1ccc(NC(=O)CCNC(=O)C2CCN(S(=O)(=O)c3ccccc3)CC2)cc1	6%	11%	/	-1.5%	?	?	-8
COc1ccc2[nH]cc(CCCN3C(=O)c4ccccc4C3=O)c2c1	-8%	2%	4.1	-1.0%	-7%	-1	-2
COCc1cc(Sc2c(Cl)cccc2Cl)nc(-c2ccccc2)n1	-10%	7%	-2.1	1.2%	4%	15	-37
O=C(N/N=C/c1cc2c(cc1Cl)OCO2)c1ccc2c(c1)OCCO2	-10%	12%	2.6	/	17%[15.4 µM]	-14	-22
O=C(c1ccco1)N(CCO)Cc1cc2cc3c(cc2[nH]c1=O)OCO3	15%	3%	-2.2	/	0%[15.4 µM]	-6	1
O=C(COC(=O)[C@@H]1CC(O)CN1S(=O)(=O)c1ccc(Cl)cc1)NC(=O)NCc1ccccc1 (stereo partly specified)	2%	/	/	-2.7%	-73%[inhibitor]	0	-16
Cn1c(=O)[nH]c(=O)c2c1nc(OC(=O)c1ccccc1)n2CC(O)COc1ccc(F)cc1 (stereo unspecified)	2%	0%	-3.2	-1.4%	1%	13	-8
COc1cc(/C=C2/C(=O)ON=C2C)ccc1OCc1ccccc1F	8%	56µM*	6.3	1.5%	-1%	0	1
O=c1c2ccccc2nc(SCc2cn3ccsc3n2)n1-c1ccccc1F	27%	13%	0.6	0.0%	-8%	-7	-3
COCCN(C(=O)COC(=O)C12CC3CC(CC(Cl)(C3)C1)C2)c1c(N)n(Cc2ccccc2)c(=O)[nH]c1=O	5%	/	/	-1.0%	-20%	11	?
CC(C)c1ccc(N(C(=O)c2csnn2)C(C(=O)NC(C)(C)C)c2ccncc2)cc1 (stereo unspecified)	-18%	13%	-1.5	0.0%	-46%[inhibitor]	-21	-5
CCCn1c(C)cc(/C=C(\C#N)C(=O)OCC(=O)NC(=O)NC(C)(C)C)c1C	5%	7%	14	-4.7%	2%	9	12
COC(=O)c1c(NC(=O)COc2ccc(Cl)cc2)sc2c1CC(C)(C)NC2(C)C	11%	56µM*	/	0.3%	-29%	9	-15
CCCCOCCCNC(=O)c1ccc(OCC)cc1	3%	23%	1.7	1.0%	-12%	0	-6
COc1cc(C(=O)NCc2ccccn2)ccc1OCc1c(C)noc1C	18%	16%	1.6	0.9%	-5%	6	-4
CCOc1ccc2ccccc2c1/C=N/NC(=O)CC1(C)OCCCO1	-3%	7%	2.7	-5.5%	-3%	-4	-25
CC(C)=NOCC(=O)Nn1c(COc2ccccc2)nc2ccccc2c1=O	0%	13%	-1.9	1.2%	-14%	?	-7
CN1CCCN(c2ncnc3scc(-c4ccc(F)cc4)c23)CC1	-7%	24%	-4.7	0.2%	0%	-1	-10
COc1ccc(NC(=O)CC2C(=O)N(c3ccccc3)C(=O)N2Cc2ccco2)cc1 (stereo unspecified)	8%	14%	-0.8	/	1%[15.4 µM]	11	3
COc1cc2c[n+](C)c3c4ccccc4ccc3c2cc1OC	0%	/	/	8.9µM*	?	/	-17
Cc1ccc2nc(N(CCCN(C)C)C(=O)c3sc4ccccc4c3Cl)sc2c1	11%	45µM*	7.3	1.5%	17%	-6	-38
CC(=O)c1cccc(NC(=O)CN(c2ccc(C)cc2)S(=O)(=O)c2cccc3nonc23)c1	-22%	10%	6.3	-0.3%	1%	3	-23
CSc1cccc(NC(=O)Cc2ccccc2[N+](=O)[O-])c1	6%	12%	2.4	/	2%[15.4 µM]	-10	-5
O=C(CNCCc1ccccc1)N1CCc2ccccc2C1	11%	2%	-0.8	/	0%[15.4 µM]	2	-1
CCOC(=O)c1c(NC(=O)CN(CC)CC)sc2c1CCC2	-18%	2%	-2.1	-19%	5%	1	-6
COCCNC(=S)Nc1ccc(N2CCCCC2)cc1	-4%	13µM*	-2.7	-2.2%	7%	-5	-5
O=C(NN1CCOCC1)c1ccc(Cl)c(Cl)c1	4%	7%	/	2.6%	?	2	-32
COc1ccc(-n2cccc2/C=C2\C(=N)N3N=C(C(C)C)SC3=NC2=O)cc1	-11%	-33%	-3.4	/	-5%[15.4 µM]	13	0
C[C@@H]1CN([C@H](C)CO)C(=O)c2cccc(NC(=O)Nc3ccc(C(F)(F)F)cc3)c2O[C@H]1CN(C)S(=O)(=O)c1cccs1	?	/	/	0.2%	-53%[inhibitor]	/	-8
COc1ccccc1/C=C/C(=O)NCC(=O)N/N=C/c1cc(Br)ccc1OC	-10%	24%	0.9	?	-13%	-17	-12
COc1ccc(C2Cc3ccccc3C(=O)O2)cc1 (stereo unspecified)	-4%	9%	6.9	-24%	4%	-5	-2
Cc1cccc(OCC(=O)NNC(=O)c2ccccc2OCc2c(C)noc2C)c1	-3%	/	/	-4.2%	17%	9	-5
Nc1nc2c(nc(SCc3ccccc3Br)n2C2OC(CO)C(O)C2O)c(=O)[nH]1 (stereo unspecified)	2%	?	-1.6	/	35%[15.4 µM]	-17	2
Fc1ccc(N/N=C2/CCSc3sccc32)c(F)c1	2%	-20%	4.7	-6.8%	2%[15.4 µM]	-2	-4
CCC(Sc1ncccc1Nc1ccccn1)C(=O)O (stereo unspecified)	1%	/	/	0.0%	-10%	/	4
CN(C)c1nc(N/N=C\c2ccc(Cl)c([N+](=O)[O-])c2)nc(Nc2ccc(F)cc2)n1	-20%	/	/	-0.7%	-4%	/	-23
COc1cc(C(=O)NC2CCN(Cc3nnnn3Cc3ccc(F)cc3)CC2)cc(OC)c1OC	-10%	-10%	2.6	/	12%[15.4 µM]	-3	-2
Cc1ccc(Sc2cnc(N)nc2C)cc1	7%	4%	1.6	/	-6%[15.4 µM]	9	-1
COc1ccc(OC)c(-c2nc(C(=O)NCCCN3CCOCC3)cc3c2[nH]c2ccccc23)c1	-15%	-10%	-4.1	-22%	/	4	-79

The list goes on, overlapping the part above by 2 compounds.
SMILES	gsp antag	Sfp inh	Menin-MLL FL inh	ClpP mod	gsp ag	TRPV1 PAM	D2 PAM
Cc1ccc(Sc2cnc(N)nc2C)cc1	7%	4%	1.6	/	-6%[15.4 µM]	9	-1
COc1ccc(OC)c(-c2nc(C(=O)NCCCN3CCOCC3)cc3c2[nH]c2ccccc23)c1	-15%	-10%	-4.1	-22%	/	4	-79
O=C(CSc1ccccn1)Nc1ccc(NC(=O)CSc2ccccn2)cc1	2%	4%	-4.1	0.0%	?	6	-2
CCCc1cc(C(=O)Cc2ccccn2)c(O)cc1O	-1%	-2%	-3.7	-5.6%	?	-13	0
O=C(Nc1ccc2nc3n(c(=O)c2c1)CCCC3)c1cccnc1Cl	3%	/	/	-7.7%	?	/	-4
O=c1c2ccccc2nc2n1CC/C2=C\c1ccccc1[N+](=O)[O-]	/	-20%	-1.0	/	/	-3	/
O=C(Nc1ccc(Cl)cc1)Nc1nnc(CSCc2ccccc2Cl)s1	-3%	10%	1.8	-1.0%	?	1	0
O=c1c2cccnc2n(-c2ccccc2)n1Cc1c(Cl)cccc1Cl	1%	-21%	-0.1	/	7%[15.4 µM]	0	4
CCOC(=O)c1c(C)[nH]c(-c2csc(N)n2)c1C	/	35µM*	0.1	/	3%[15.4 µM]	10	-6
COc1cccc(/C=C/C(=O)OCC(=O)Nc2ccc(Cl)cn2)c1	/	-9%	0.5	/	/	9	/
O=C(O)C(Cc1c[nH]c2ccccc12)NS(=O)(=O)c1ccc2ccccc2c1 (stereo unspecified)	4%	-11%	3.0	1.7%	-10%	11	-2
O=C(O)c1ccc(N/N=C/c2ccc(-c3ccccc3)cc2)cc1	?	-13%	-0.7	-10%	?	13	-22
CN1CCN(c2ccc(NC(=S)NC(=O)/C=C/c3ccco3)cc2)CC1	3%	-23%	-0.8	/	-13%	-4	-15
C=CCNC(=O)/C(C#N)=C/c1c(C)nn(-c2ccc(Cl)cc2)c1Cl	-9%	24%	3.5	0.8%	17%	-1	-9
Cc1ccc(C(=O)C=Cc2cccc(C)c2)cc1	-11%	/	/	/	1%	/	-9
CCCc1cc(=O)[nH]c(N2CCN(Cc3ccc4c(c3)OCO4)CC2)n1	11%	10%	-2.0	1.1%	-50%[inhibitor]	22	-22
CCOC(=O)C1C(=O)C=C(c2ccc(NS(C)(=O)=O)cc2)CC1c1ccco1 (stereo unspecified)	-20%	?	?	-6.1%	10%	4	7
Cc1c(S(=O)(=O)c2ccccn2)c(N)n(Cc2cccc(Cl)c2)c1C	-7%	?	?	-4.0%	1%	3	-19
COC(=O)C(NNc1ccccc1)(NC(=O)c1cccc(F)c1)C(F)(F)F (stereo unspecified)	-2%	?	4.1	145%	6%	?	9
CCCCn1c(=O)c(-[n+]2ccccc2)c([O-])c2ccccc21	-2%	14µM*	-7.1	2.3%	-44%	-6	-5
C=CCNC(=S)/N=c1/scc(C)n1C	-1%	15%	2.1	0.8%	-40%	-1	-4
